Screening data: PubChem BioAssay, National Center for Advancing Translational Sciences (NCATS)
TRPML1 ag = agonists of human TRPML1 channel; TRPML1-expressing cells, Ca2+ dye fluorescence, FDSS; host cell line not named in the record; reference of the full effect not given here; activation, % (concentration not given with the values); Q9GZU1; 410,000 compounds, 0.12% hits; AID 624414; in the data active = activation above about 50%; inconclusive = about 30% to 50%; inactive = below about 30%; further: 0% is about no effect; the text of the record puts the active cut at 80%
Target sequence (Q9GZU1 whole entry, looked up): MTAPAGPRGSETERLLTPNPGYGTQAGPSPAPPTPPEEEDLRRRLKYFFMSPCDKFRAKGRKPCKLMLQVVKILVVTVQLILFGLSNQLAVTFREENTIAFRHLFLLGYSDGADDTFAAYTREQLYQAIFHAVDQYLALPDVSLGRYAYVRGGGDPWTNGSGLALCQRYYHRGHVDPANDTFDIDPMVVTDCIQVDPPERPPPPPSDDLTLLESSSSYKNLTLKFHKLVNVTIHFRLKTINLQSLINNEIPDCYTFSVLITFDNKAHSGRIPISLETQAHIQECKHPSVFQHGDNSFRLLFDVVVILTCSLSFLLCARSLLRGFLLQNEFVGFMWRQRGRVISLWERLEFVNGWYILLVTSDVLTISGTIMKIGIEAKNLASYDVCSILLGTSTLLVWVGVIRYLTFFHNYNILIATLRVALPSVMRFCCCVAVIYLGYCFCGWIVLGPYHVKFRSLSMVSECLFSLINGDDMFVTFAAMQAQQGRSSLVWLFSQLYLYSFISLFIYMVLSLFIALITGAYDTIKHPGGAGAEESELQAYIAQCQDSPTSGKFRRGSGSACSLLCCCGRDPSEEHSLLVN
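Cells: TRPML1-DL, 1X Tet inducer, ~16 h at 37 degrees C/5% CO2. Dye: ABD Ca8 no-wash + quencher, 45-90 min RT. Read: 10 s baseline, compound add, 110 s agonist phase; 54-4 EC80 (4uM final), 110 s antagonist phase.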
TRPML1 inh = inhibitors of human TRPML1 channel | Q9GZU1 | TRPML1-inducible cells, Ca2+ dye fluorescence, FDSS; stronger effect = lower value; inhibition of EC80 agonist-evoked calcium signal | activity change, negative = inhibition, % (test concentration not listed) | 390,000 compounds, 0.02% hits | AID 624415; in the data active means activity change below about -50%; inconclusive means about -30% to -50%; inactive means above about -30%;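 further: stimulus is agonist 54-4 at its EC80 concentration; on the % scale 0 is the no-effect control and ±100 the full control effect; compound concentration not given in the record; the text of the record puts the active cut at -80%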
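TRPML1-DL cells, Tet-induced overnight (~16 h, 37 °C) at 1,500 cells/well, were loaded with Ca8 no-wash dye plus quencher for 45-90 min at room temperature. Compounds were pinned during FDSS kinetic reading; agonist 54-4 at EC80 (4 uM final) then added.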
Six1-Eya2 inh = blocks human Six1 binding to Eya2; Q15475+O00167; AlphaScreen GST-Six1/His-Eya2 binding, biochemical; stronger effect = lower value; control for the full effect not named in the record; activity change, % (test concentration not listed); 360,000 compounds, 0.56% hits; in the data active = activity change below about -65%; inconclusive = about -30% to -65%; inactive = above about -30%; further: on the % scale 0 is the no-effect control and ±100 the full control effect
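Compounds are tested against tagged Six1 and Eya2 proteins bridged by glutathione donor and nickel acceptor beads; after a one-hour incubation at 37 °C without light, AlphaScreen emission is recorded.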
TRPV1 PAM = enhances activation of the human vanilloid receptor TRPV1; 320,000 compounds, 0.02% hits; Q8NER1; potentiation, % at 8.33 µM; TRPV1-expressing cells, Fluo-8 calcium influx, capsaicin EC20 potentiation; host cell line not named in the record; control for the full effect not named in the record; active means potentiation above 80%; inconclusive means 30% to 80%; inactive means below 30%; further: 0% is about no effect
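Cells expressing TRPV1 were dye-loaded with Fluo-8 and read kinetically: 10 s baseline, 3 min after compound (agonist portion), then 2 min after EC20 capsaicin (allosteric enhancer portion). Calcium-bound dye fluorescence at 480/520 nm.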
CtBP-E1A inh = blocks the CtBP interaction with E1A; AlphaScreen GST-E1A/His-CtBP binding, 1536-well; stronger effect = lower value; control for the full effect not named in the record; activity change, % (concentration not given with the values); 340,000 compounds, 0.49% hits; in the data active means activity change below about -65%; inconclusive means about -30% to -65%; inactive means above about -30%; further: on the % scale 0 is the no-effect control and ±100 the full control effect
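Protein mix (5X: 125 nM each GST-E1A, His-CtBP) was incubated with pinned compound 2 h at 37 deg C in dark, in 50 mM Tris pH 8.0 buffer with 300 mM NaCl. Glutathione donor and nickel acceptor beads followed; AlphaScreen signal read after 1 h.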
D2 potentiator = human D2 receptor positive allosteric modulation. P14416. DiscoveRx D2 beta-arrestin cells, luminescence, 90 min; 100% = 57 uM dopamine signal. potentiation, % (no concentration beside the values). 360,000 compounds, 0.23% hits; active = potentiation of 50% or more; inconclusive = 30% to 50%; inactive = 30% or less;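 further: compound concentration not given in the record; tested on top of an EC20 dose of dopamine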
Target sequence (P14416 whole entry, looked up): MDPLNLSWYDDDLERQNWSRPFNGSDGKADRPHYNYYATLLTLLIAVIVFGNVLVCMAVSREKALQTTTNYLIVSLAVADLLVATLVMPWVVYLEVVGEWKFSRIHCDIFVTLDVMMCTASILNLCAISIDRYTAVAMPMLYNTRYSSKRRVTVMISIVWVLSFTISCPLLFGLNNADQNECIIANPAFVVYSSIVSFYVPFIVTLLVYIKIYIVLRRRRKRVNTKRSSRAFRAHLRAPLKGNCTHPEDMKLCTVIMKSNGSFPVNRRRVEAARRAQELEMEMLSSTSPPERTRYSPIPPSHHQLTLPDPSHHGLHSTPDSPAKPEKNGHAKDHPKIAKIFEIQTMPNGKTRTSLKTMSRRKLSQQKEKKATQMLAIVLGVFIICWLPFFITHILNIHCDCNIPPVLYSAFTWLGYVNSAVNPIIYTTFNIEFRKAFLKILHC
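D2 cells co-treated with compound plus 50 nM dopamine (EC20) for 90 min at 37 deg C to detect potentiation. Beta-arrestin recruitment was read as enzyme-fragment luminescence after 1 h at ambient temperature. Full response was set by 57 uM dopamine.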
Numbers without * were called inactive.

Results for Cc1ccc(NC(=O)CSc2nncn2-c2ccccn2)cc1Cl ?
TRPML1 ag: 0.4; TRPML1 inh: -2.7; Six1-Eya2 inh: -8.2; TRPV1 PAM: 4.0; CtBP-E1A inh: 7.4; D2 potentiator: -3.2

How did CCN1CCN(c2ccc(S(=O)(=O)N3CCCCC3)cc2NC(=O)c2cccc(F)c2)CC1 do in these assays?
TRPML1 ag: 0.1; TRPML1 inh: 7.0; Six1-Eya2 inh: 3.1; TRPV1 PAM: 6.3; CtBP-E1A inh: -6.9; D2 potentiator: 0.9

How did Cc1cc(C(=O)N2CCN(c3ccccn3)CC2)no1 do in these assays?
TRPML1 ag: 1.5; TRPML1 inh: -6.7; Six1-Eya2 inh: -0.1; TRPV1 PAM: -2.1; CtBP-E1A inh: 7.7; D2 potentiator: -0.6

What do the screens show for `CCOc1cccc(CN2CCN(CCc3ccccc3)C(CCO)C2)c1O` (centres undefined)?
TRPML1 ag: 0.3; TRPML1 inh: 16.1; Six1-Eya2 inh: 6.8; TRPV1 PAM: -10.2; CtBP-E1A inh: -22.7; D2 potentiator: -24.5

What do the screens show for `CCc1c(C(=O)NNC(=O)Nc2ccc3c(c2)OCO3)csc1C`?
TRPML1 ag: 0.6; TRPML1 inh: -8.2; Six1-Eya2 inh: -1.9; TRPV1 PAM: 9.3; CtBP-E1A inh: 1.6; D2 potentiator: -8.9

What do the screens show for `Cc1ccc(S(=O)(=O)N(C)c2ccccc2)cc1`?
TRPML1 ag: -0.7; TRPML1 inh: 10.8; Six1-Eya2 inh: 12.8; TRPV1 PAM: -3.3; CtBP-E1A inh: 15.5; D2 potentiator: 3.5

How did O=C(Nc1cccc(OC(F)(F)F)c1)C1Cc2c(-c3ccco3)ccnc2O1 (centres undefined) do in these assays?
TRPML1 ag: -0.3; Six1-Eya2 inh: 1.1; CtBP-E1A inh: 1.1; D2 potentiator: -12.0

How did CC(=O)Nc1ccc2c(c1)nc1n2CCOC1 do in these assays?
TRPML1 ag: 0.4; TRPML1 inh: -2.2; Six1-Eya2 inh: 7.2; TRPV1 PAM: 19.9; CtBP-E1A inh: 7.6; D2 potentiator: 1.4

What do the screens show for `CCOC(=O)[C@@H]1CSCCS(=O)(=O)N1Cc1ccccc1Br`?
TRPML1 ag: -0.5; TRPML1 inh: -9.0; Six1-Eya2 inh: -0.3; CtBP-E1A inh: -21.0; D2 potentiator: -7.1

Results for CCOC(=O)N/N=C1\CC(C)CC(C)(C)C1 (centres undefined) ?
TRPML1 ag: -0.1; TRPML1 inh: -8.6; Six1-Eya2 inh: 5.9; TRPV1 PAM: -11.9; CtBP-E1A inh: 5.8; D2 potentiator: -11.1

What do the screens show for `O=C(NCc1ccc(Cl)c(Cl)c1)c1cc(C2CCCCN2C(=O)C2CCCCC2)on1` (centres undefined)?
TRPML1 ag: -0.5; Six1-Eya2 inh: -4.0; CtBP-E1A inh: -4.5; D2 potentiator: -6.9

Results for O=C(C1CC1)N1N=C(c2ccccc2)CC1(O)C(F)(F)F (centres undefined) ?
Six1-Eya2 inh: 3.8; TRPV1 PAM: -2.2; D2 potentiator: 22.4

What do the screens show for `CC1(c2ccccc2)NC(=O)N(CC(=O)Nc2cccc(/C=C/c3ccccn3)c2)C1=O` (centres undefined)?
TRPML1 ag: -0.6; TRPML1 inh: -16.7; Six1-Eya2 inh: 0.4; TRPV1 PAM: -1.8; CtBP-E1A inh: -1.7; D2 potentiator: 2.7

Results for CN1C(=O)c2ccccc2N(C)C1c1ccccc1Cl (centres undefined) ?
TRPML1 ag: -0.3; TRPML1 inh: -9.3; Six1-Eya2 inh: 8.7; TRPV1 PAM: 5.7; CtBP-E1A inh: 14.9; D2 potentiator: 0.9

Results for CC(NC(=O)c1cc(-c2cccs2)on1)c1ccccc1 (centres undefined) ?
TRPML1 ag: 1.9; TRPML1 inh: 3.8; Six1-Eya2 inh: 2.3; TRPV1 PAM: -12.1; CtBP-E1A inh: 6.7; D2 potentiator: -18.0

What do the screens show for `O=C(CSc1nnc(CNC(=O)c2ccccc2)o1)NCc1ccccc1Cl`?
TRPML1 ag: -0.4; TRPML1 inh: 5.4; Six1-Eya2 inh: -4.7; TRPV1 PAM: -0.7; CtBP-E1A inh: -0.1; D2 potentiator: -14.1

How did Fc1ccccc1CSc1ncnc2c1ncn2C1CCCCO1 (centres undefined) do in these assays?
TRPML1 ag: -0.2; TRPML1 inh: -2.7; Six1-Eya2 inh: 9.9; CtBP-E1A inh: 2.0; D2 potentiator: -4.4

Results for Cc1cc(Cl)ccc1C(=O)C1CCCN(C(=O)CN2CCOC2=O)C1 (centres undefined) ?
TRPML1 ag: -0.1; TRPML1 inh: 1.2; Six1-Eya2 inh: 9.9; TRPV1 PAM: 3.6; CtBP-E1A inh: 6.9; D2 potentiator: 0.1

What do the screens show for `CC(O)c1ccc(Oc2cnccn2)cc1` (centres undefined)?
TRPML1 ag: 0.3; TRPML1 inh: 9.0; Six1-Eya2 inh: -1.4; TRPV1 PAM: 21.4; CtBP-E1A inh: -4.8; D2 potentiator: -5.1

What do the screens show for `CCN(Cc1ccncc1)C(=O)CCc1nnc(CCc2ccc(OC)cc2)o1`?
TRPML1 ag: 0.4; TRPML1 inh: 3.7; Six1-Eya2 inh: 3.0; TRPV1 PAM: -1.6; CtBP-E1A inh: 1.1; D2 potentiator: -6.4

How did COc1ccc(C(=O)CCN2CCCC(C)C2)cc1 (centres undefined) do in these assays?
TRPML1 ag: 4.1; TRPML1 inh: -15.2; Six1-Eya2 inh: 4.2; TRPV1 PAM: 6.2; CtBP-E1A inh: -0.9; D2 potentiator: -12.7

Results for CSCC[C@H](NC(=O)[C@@H]1CSC2c3ccccc3C(=O)N21)C(=O)N1CCC[C@H]1CO (some centres undefined) ?
Six1-Eya2 inh: -6.2; TRPV1 PAM: -10.1; CtBP-E1A inh: 5.4; D2 potentiator: -13.4

How did CCn1c(COc2cccc(C)c2)nnc1SCC(=O)CC(=O)Nc1ccccc1OC do in these assays?
TRPML1 ag: 3.0; TRPML1 inh: 9.8; Six1-Eya2 inh: -1.7; TRPV1 PAM: 16.9; CtBP-E1A inh: -22.5; D2 potentiator: -17.5

What do the screens show for `NC(=O)CSc1nnc2ccc(-c3ccc(Cl)cc3)nn12`?
TRPML1 ag: -0.4; TRPML1 inh: 4.2; Six1-Eya2 inh: -3.2; TRPV1 PAM: 7.6; CtBP-E1A inh: 5.5; D2 potentiator: -4.1

What do the screens show for `CCc1nc2c(OCCOc3ccc(F)cc3)cccn2c1N(C)C(=O)c1cccs1`?
TRPML1 ag: -0.5; TRPML1 inh: -7.8; Six1-Eya2 inh: -16.0; CtBP-E1A inh: -11.3; D2 potentiator: -9.3

What do the screens show for `O=C(O)Cn1nc(C(F)(F)F)c2c1CCCC2`?
TRPML1 ag: 0.7; TRPML1 inh: -1.2; Six1-Eya2 inh: 10.2; TRPV1 PAM: 13.7; CtBP-E1A inh: 9.4; D2 potentiator: -1.5

How did Cc1ccc(C)c(Cn2nnc3c(=O)[nH]c(C4CCCN(C(=O)c5cccs5)C4)nc32)c1 (centres undefined) do in these assays?
TRPML1 ag: 1.4; TRPML1 inh: 1.0; Six1-Eya2 inh: -8.9; TRPV1 PAM: 1.1; CtBP-E1A inh: -27.2; D2 potentiator: -1.6

Results for CCOC(=O)CSc1nc(-c2ccccc2)nc2ccc(C)cc12 ?
TRPML1 ag: 3.2; TRPML1 inh: 31.3; Six1-Eya2 inh: 10.3; TRPV1 PAM: -8.1; D2 potentiator: -0.4

Results for O=C(NC(Nc1ccc(F)cc1)(C(F)(F)F)C(F)(F)F)c1cccnc1 ?
TRPML1 ag: -0.4; TRPML1 inh: 0.9; Six1-Eya2 inh: 10.7; TRPV1 PAM: 19.7; CtBP-E1A inh: -4.3; D2 potentiator: -5.0

What do the screens show for `CSc1ccccc1NC(=O)Nc1cccc(Cl)c1Cl`?
TRPML1 ag: -0.2; TRPML1 inh: -5.6; Six1-Eya2 inh: 4.2; TRPV1 PAM: -4.6; CtBP-E1A inh: 4.0; D2 potentiator: 2.8

What do the screens show for `COc1ccc(CCNc2nc(C)c(C(C)=O)s2)cc1OC`?
TRPML1 ag: 1.4; TRPML1 inh: 9.8; Six1-Eya2 inh: 5.7; TRPV1 PAM: -1.6; CtBP-E1A inh: 5.7; D2 potentiator: 0.2

Results for CCCCSCc1[nH]c(=O)[nH]c1C(=O)CCCCC(=O)OCC ?
TRPML1 ag: -0.3; TRPML1 inh: -8.2; Six1-Eya2 inh: -2.6; TRPV1 PAM: 4.9; CtBP-E1A inh: -8.9; D2 potentiator: -11.2

How did CN(c1ccc(C(=O)O)cc1)S(=O)(=O)c1ccc(Cl)cc1 do in these assays?
TRPML1 ag: 1.0; TRPML1 inh: 13.4; Six1-Eya2 inh: 11.5; TRPV1 PAM: 3.3; CtBP-E1A inh: 2.5; D2 potentiator: 5.7

How did CCCCCCC=C1CCC(CN2CCCC2)C1=O (centres undefined) do in these assays?
TRPML1 ag: -0.2; Six1-Eya2 inh: 9.8; CtBP-E1A inh: -13.8; D2 potentiator: -5.2

How did COc1ccc2[nH]cc(CCNC(=O)/C=C/[C@H]3O[C@@H](n4cnc5c(NC(=O)c6ccccc6)ncnc54)[C@H](O)[C@@H]3O)c2c1 do in these assays?
TRPML1 ag: 0.7; TRPML1 inh: -20.8; Six1-Eya2 inh: 0.9; CtBP-E1A inh: -6.7; D2 potentiator: 2.0

What do the screens show for `CCOC(=O)Cc1nnc(NC(=O)C(CC)Sc2nncn2C)s1` (centres undefined)?
TRPML1 ag: 0.0; TRPML1 inh: -5.9; Six1-Eya2 inh: 6.3; TRPV1 PAM: -5.3; CtBP-E1A inh: -3.4; D2 potentiator: 3.9

How did O=S(=O)(Nc1ccc(N2CCOCC2)nn1)c1ccccc1 do in these assays?
TRPML1 ag: -0.2; TRPML1 inh: -5.5; Six1-Eya2 inh: 5.2; TRPV1 PAM: inconclusive; CtBP-E1A inh: -0.5; D2 potentiator: 7.9

Four records picked at random from those above, as already listed:
What do the screens show for `CCOC(=O)Cc1nnc(NC(=O)C(CC)Sc2nncn2C)s1` (centres undefined)?
TRPML1 ag: 0.0; TRPML1 inh: -5.9; Six1-Eya2 inh: 6.3; TRPV1 PAM: -5.3; CtBP-E1A inh: -3.4; D2 potentiator: 3.9

How did COc1ccc2[nH]cc(CCNC(=O)/C=C/[C@H]3O[C@@H](n4cnc5c(NC(=O)c6ccccc6)ncnc54)[C@H](O)[C@@H]3O)c2c1 do in these assays?
TRPML1 ag: 0.7; TRPML1 inh: -20.8; Six1-Eya2 inh: 0.9; CtBP-E1A inh: -6.7; D2 potentiator: 2.0

Results for CCCCSCc1[nH]c(=O)[nH]c1C(=O)CCCCC(=O)OCC ?
TRPML1 ag: -0.3; TRPML1 inh: -8.2; Six1-Eya2 inh: -2.6; TRPV1 PAM: 4.9; CtBP-E1A inh: -8.9; D2 potentiator: -11.2

What do the screens show for `COc1ccc(CCNc2nc(C)c(C(C)=O)s2)cc1OC`?
TRPML1 ag: 1.4; TRPML1 inh: 9.8; Six1-Eya2 inh: 5.7; TRPV1 PAM: -1.6; CtBP-E1A inh: 5.7; D2 potentiator: 0.2
